PrP 5UTR inh = inhibition of PrP 5' UTR reporter expression; cell-based PrP 5' UTR mRNA reporter, plate reader; 340,000 compounds, 0.35% hits; inhibition, % (test concentration not listed);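 active = every replicate at 50% or more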;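 note: 0 = median of the neutral control wells; tested in H4 reporter cells; numbers are from one replicate; inactives centre near -14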
Bead autofluor = counter-screen for toxin protease inhibitors: compound fluorescence. compound autofluorescence counterscreen, microsphere flow cytometry; active compounds read high. fluorescence intensity (test concentration not listed). 360,000 compounds, 3.1% hits;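 active = at least 3 SD above the mean of all compounds, about 16000 in these data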;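 note: 100 nL of 1 mM stock went into each well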
Sa ugtP lethal = growth inhibition of ugtP-null S. aureus, primary screen, RN4220 ugtP deletion, OD600 | 16 h; some inactives read as strong as hits | AID 1259309, 2017 | 330,000 compounds, 0.54% hits | growth inhibition, % (test concentration not listed);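 active = z-score under -3 and OD600 up to 0.15 on both plates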;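 note: plate controls were untreated wells for no effect and antibiotic for full effect; wells of about 80 µL received 100 nL stock; the first replicate is given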
RN4220 kill = growth inhibition of S. aureus RN4220, primary screen, OD600; 16 h; inhibition, % (no concentration beside the values); 330,000 compounds, 0.33% hits; AID 1259311, 2017;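 active = z-score of -3 or lower and OD600 up to 0.18 on both plates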;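 note: plate controls were untreated cells for no effect and reference antibiotic for full effect; stock transfer was 100 nL into about 80 µL; one replicate is shown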
Mtb hypoxia rep = PubChem AID 1159583. M. tuberculosis hypoxia-regulated fluorescent reporter, fluorescence. fluorescence inhibition, % (no concentration beside the values). 300,000 compounds, 0.1% hits;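 active = 35 to 45% if threefold the growth effect, above 45% if 1.5-fold the growth effect; inactive = the rest, general growth blockers included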;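 note: wells of about 50 µL received 100 nL stock; 0% = vehicle wells and 100% = reference inhibitor wells; whole bacteria with a GFP reporter of the hypoxia response; strong numbers were not always called active; many hits fall short of the cut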
BJeLR viability = MLPCN primary cell-based screen for lethality selective to Ras in HRASV12 cells | 300,000 compounds, 0.17% hits | BJeLR (HRASV12) viability, CellTiter-Glo ATP luminescence, 48 h; reference of the scale not given here | AID 1554, 2009 | inhibition, % (concentration not given with the values);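 active = replicate mean above 50%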;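 note: 50 nL library stock added to about 25 µL; numbers are from one replicate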
Mtb hypoxia rep growth = recorded beside Mtb hypoxia rep, whose call it bears; growth inhibition, %; measured here: M. tuberculosis growth (absorbance);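 0% = vehicle and 100% = reference antibiotic; read after six days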
Active calls of the source: *; · = no result given; & = joins results of further samples.

Values run as follows: PrP 5UTR inh | Bead autofluor | Sa ugtP lethal | RN4220 kill | Mtb hypoxia rep | Mtb hypoxia rep growth | BJeLR viability
> O=C(N/N=C\c1ccc(S(=O)(=O)O)o1)c1ccc2c(c1)OCO2
→ -18 | 3693 | · | · | · | · | 2
> O=C(COc1ccccc1)NCCn1ccc2ccccc21
→ -16 | 6111 | 0 | 2.9 | 21 | 16 | 3
> Cc1ccc(C(=O)Nc2cccc(N3C(=O)C4CCC(C)CC4C3=O)c2)cc1 (stereo unspecified)
→ -3 | 6395 | 10 | 5.6 | 6 | -4 | -4
> CCN(CC)C(=O)CSC1=C(C#N)C(c2cccs2)C=C(C)N1 (stereo unspecified)
→ -6 | 4322 | 2 | -1.4 | · | · | -4
> C/C(=N\NS(=O)(=O)c1ccc(C)cc1)c1cc2ccccc2oc1=O
→ -1 | 4656 | · | · | · | · | 7
> CCCSC1=C(C#N)C(c2ccc(O)c(OC)c2)CC(=O)N1 (stereo unspecified)
→ -4 | 5883 | 6 | 1.1 | 6 | -2 | -3
> COc1ccc(S(=O)(=O)N(C)C[C@@H]2Oc3c(NS(C)(=O)=O)cccc3C(=O)N([C@@H](C)CO)C[C@H]2C)cc1
→ -19 | 3966 | 12 | 3.3 | 2 | 2 | ·
> c1ccc2c(C[n+]3csc4ccccc43)cccc2c1
→ -20 | 24532* | 95* | 17 | 5 | 5 | -6
> CCOC(=O)c1nn(-c2ccccc2)c(=O)cc1SC(C)C
→ -14 | 11481 | 2 | 1.9 | -1 | -3 | -23
> CCOc1cc(C(=O)N2CCC(CC3CC(c4ccc(Cl)cc4)=NO3)(C(=O)NCC3CCCCC3)CC2)cc(OCC)c1OCC (stereo unspecified)
→ 6 | 3654 | 1 | 3.5 | -12 | 5 | -6
> Cc1ccccc1Nc1nc(N)nc(COC(=O)c2ccccc2)n1
→ -62 | 2473 | -3 | 4.4 | -5 | 5 | 4
> Nc1cc(=O)[nH]c(SCC(=O)Nc2ccc(F)c(Cl)c2)n1
→ -25 | 21150* | -1 | 3.3 | 0 | -12 | -5
> Cc1cccc2cc(COC(=O)c3cccc([N+](=O)[O-])c3)c(=O)[nH]c12
→ · | · | 1 | 3.6 | 4 | 2 | 10
> COC(Cc1ccccc1N1CCCC1=O)OC
→ -35 | 4143 | 6 | 6.5 | 22 | 4 | -1
> O=C(Nc1nccs1)c1c(O)c2c(n(Cc3ccco3)c1=O)CCCC2
→ -19 | 3822 | 57 | 59 | -6 | -4 | -2
> O=C(CNC(=O)c1ccc(Br)cc1)OCC(=O)c1ccccc1
→ -11 | 5367 | 1 | 2.3 | 12 | -7 | 1
> Cn1nc(C(=O)Nc2ccccc2N2CCCC2)c2ccccc2c1=O
→ -6 | 5545 | -16 | 5.2 | 8 | 3 | 3
> O=C(Cc1cnc2ncnn2c1)N1CCc2c([nH]c3ccccc23)C1c1ccccc1F (stereo unspecified)
→ -16 | 4488 | 3 | 5.7 | -2 | 1 | 1
> COc1ccccc1/C=C\C(=O)NCC(=O)N/N=C/c1cccc(OC)c1O
→ -2 | 4895 | · | · | · | · | 1
> O=c1c2ccccc2c(=O)n(-c2ccccc2)n1-c1ccccc1
→ -16 | 2995 | 7 | 3.8 | 10 | 3 | ·
> Cc1ccccc1CN(C)CC(=O)Nc1cccc(S(=O)(=O)N(C)c2ccccc2)c1
→ -11 | 3956 | 5 | -0.9 | 14 | 14 | -11
> O=C(Nc1ccccc1-c1nc2ccccc2s1)c1ccc(Br)o1
→ 2 | 23088* | -16 | 3.7 | 3 | 1 | 10
> O=C(Nc1cccnc1)C(Cc1ccccc1)n1cccc1 (stereo unspecified)
→ -7 | 4576 | 9 | 2.5 | -1 | -2 | 9
> CCn1c(SC(C)C)nnc1-c1c[nH]c2ccccc12
→ -15 | 6560 | 1 | 20 | -6 | -5 | -4
> CCC(=NNc1ccccc1)c1cnnc(-c2ccccc2)n1
→ · | · | 1 | 2.3 | 5 | -3 | ·
> CC(C)N1C(=O)CC2(CC[N+](C)(CCOC(=O)C(c3ccccc3)c3ccccc3)CC2)C1=O (stereo unspecified)
→ -13 | 2242 | 0 | 2.4 | · | · | 1
> CCN1C(=O)CCC(C(=O)O)C1c1ccc(OC)cc1 (stereo unspecified)
→ -6 | 4166 | -6 | 3.4 | -4 | 2 | 3
> Cc1cc(C)nc(Nc2ncc(O)n2-c2ccc(C)c(C)c2)n1
→ -12 | 6264 | 8 | 4.8 | 5 | 8 | 2
> COc1ccc(S(=O)(=O)NCC(=O)Nc2ccc3c(c2)OCCO3)cc1OC
→ -13 | 2741 | 3 | -2.7 | -4 | -1 | -3
> CCOC(=O)c1c(C)[nH]c(C)c1C(=O)COC(=O)COc1ccc(Cl)c(C)c1
→ -12 | 5127 | -6 | 9.2 | 2 | 2 | ·

An excerpt from above in order of molar mass, highest first.
Values run as follows: PrP 5UTR inh | Bead autofluor | Sa ugtP lethal | RN4220 kill | Mtb hypoxia rep | Mtb hypoxia rep growth | BJeLR viability
> COc1ccccc1/C=C\C(=O)NCC(=O)N/N=C/c1cccc(OC)c1O
→ -2 | 4895 | · | · | · | · | 1
> Cn1nc(C(=O)Nc2ccccc2N2CCCC2)c2ccccc2c1=O
→ -6 | 5545 | -16 | 5.2 | 8 | 3 | 3
> O=C(N/N=C\c1ccc(S(=O)(=O)O)o1)c1ccc2c(c1)OCO2
→ -18 | 3693 | · | · | · | · | 2
> Nc1cc(=O)[nH]c(SCC(=O)Nc2ccc(F)c(Cl)c2)n1
→ -25 | 21150* | -1 | 3.3 | 0 | -12 | -5
> O=C(Nc1cccnc1)C(Cc1ccccc1)n1cccc1 (stereo unspecified)
→ -7 | 4576 | 9 | 2.5 | -1 | -2 | 9

Other results.
Values run as follows: PrP 5UTR inh | Bead autofluor | Sa ugtP lethal | RN4220 kill | Mtb hypoxia rep | Mtb hypoxia rep growth | BJeLR viability
> CCS(=O)(=O)N1CCN(C(=O)CCC2CCCC2)CC1
→ -8 | 6925 | 8 | 0.4 | · | · | -9
> CCO[C@H]1OC(C(=O)NC2CC2)=C[C@@H](c2ccc(C(F)(F)F)cc2)[C@@H]1CCCO
→ -21 | 4255 | · | · | · | · | -7
> c1ccc2c(c1)CCCc1cc(NCCN3CCOCC3)nnc1-2
→ -7 | 6477 | -5 | 1.6 | 14 | -2 | ·
> Cc1ccc(NC(=O)COc2ccc(/C=C3/SC(=Nc4ccccc4)N(Cc4cccnc4)C3=O)cc2)cc1
→ -9 | 2612 | -3 | -7.0 | 4 | 0 | 1
> CCOC(=O)N1C=CC=C[C@@H]2[C@@H](N3C(=O)c4ccccc4C3=O)C(=O)N21
→ -24 | 2489 | 7 | 3.6 | 0 | 11 | 1
> Cc1ccc(C)c(C(=O)COC(=O)CN2C(=O)C3C4C=CC(C4)C3C2=O)c1 (stereo unspecified)
→ 7 | 3095 | · | · | · | · | -5
> CC1CN(C(C)CO)C(=O)c2cccc(NS(=O)(=O)c3ccccc3)c2OC1CN(C)Cc1ccc(-c2ccccc2)cc1 (stereo unspecified)
→ · | · | -15 | 2.3 | 11 | 8 | ·
> OCCC1CC(O)C(O)[C@]2(Cc3ccccc3CCO2)O1 (stereo partly specified)
→ · | · | 0&-3&-2&-2 | 3.1&0.5&-1.1&-0.8 | -5&15&-7&-14 | -2&5&4&-1 | ·
> COc1ccc(NS(=O)(=O)c2cc(NC(=O)c3cnc(C)cn3)ccc2N2CCCC2)cc1
→ -18 | 2244 | -1 | 6.8 | 4 | 2 | -9
> COCCNc1ccc(S(=O)(=O)N2CCCC2)cn1
→ -8 | 3539 | 4 | 4.5 | 3 | 6 | -6
> Cc1ccc(C(=O)CCS(=O)(=O)c2ccc(F)cc2)cc1
→ -30 | 5944 | 11 | 1.0 | 12 | 15 | 7
> C[C@@H](OC(=O)c1[nH]cnc1C(=O)N1CCc2ccccc2C1)c1ccccc1
→ -18 | 3408 | -8 | -7.8 | 12 | 1 | ·
> O=C(CC(=O)NN=Cc1cccc(Cl)c1Cl)NCc1ccccc1
→ · | · | 11 | 2.6 | 10 | 7 | ·
> Cc1cc(Br)ccc1S(=O)(=O)n1ccnc1C
→ -4 | 4195 | 7 | 0.4 | 15 | 9 | 2
> COc1ccc(C2C(C(=O)c3ccccc3)=C(C)Nc3nc4ccccc4n32)cc1OC (stereo unspecified)
→ -10 | 4545 | 8 | 2.2 | 6 | 13 | 1
> O=C(CSc1ncnc2c1oc1ccccc12)Nc1ccccc1F
→ -14 | 5754 | 0 | 1.0 | 9 | 7 | 9
> Cc1snc(SCc2ccc(F)cc2)c1C#N
→ -10 | 3173 | 18 | 1.0 | 6 | -3 | -9
> Cc1cc(C)nc(SCC(=O)Nc2cccc(S(=O)(=O)N(C)C)c2)n1
→ -23 | 3901 | 4 | 8.4 | 1 | 0 | -3
> N#Cc1c(-n2ccnc2)cccc1-n1ccnc1
→ -19 | 21837* | -6 | 4.3 | 6 | 8 | -3
> Cn1cccc1/C=C(/C#N)c1ccc(F)cc1
→ 80* | 4446 | 7 | 5.2 | 8 | 9 | 0
> CC(C(=O)NCc1ccco1)n1ccc2cc(S(=O)(=O)N3CCCCC3)ccc21 (stereo unspecified)
→ -15 | 4492 | 8 | 5.4 | 2 | -3 | -8
> CC(=O)OCCSc1c(-c2ccccc2)c2cc(Cl)ccc2[nH]c1=O
→ -6 | 1988 | -17 | 1.1 | 4 | 7 | 2
> CCOc1ccc2c(c1)c(N=NC(=N)N)c(O)n2C
→ -32 | 2573 | · | · | · | · | 0
> CC1CCCN(C(=O)C(C)Nc2cc(Cl)ccc2N2CCOCC2)C1 (stereo unspecified)
→ -9 | 3334 | 2 | 6.1 | 11 | 5 | 4
> CCC(NC(=S)NCc1ccc(F)cc1)c1ccccc1 (stereo unspecified)
→ -6 | · | 5 | -2.2 | 6 | 0 | 7
> CC(C)(C)C(=O)c1sc2nc(-c3cccs3)cc(C(F)(F)F)c2c1N
→ -24 | 7776 | 13 | -2.4 | -4 | 3 | -2
> N#C/C(=C(/O)c1ccc(F)cc1)c1nc2ccccc2s1
→ -56 | 4391 | · | · | · | · | 21
> COc1cccc(C(=O)N2CCN(CCCc3ccccc3)CC2)c1OC
→ -13 | 8530 | 2 | 4.9 | 3 | 6 | ·
> O=C(O)c1cc2nc(-c3ccccc3)cc(C(F)(F)F)n2n1
→ -17 | 8855 | 2 | 2.3 | 10 | 10 | -5
> O=C(CN1C(=O)/C(=C\c2cccc(Br)c2)Oc2ccccc21)NCCCN1CCOCC1
→ -39 | 6024 | -10 | 1.6 | 0 | 0 | 15
> O=C(NCCCn1ccnc1)C(=O)NCC1OCCN1S(=O)(=O)c1ccc(Br)cc1 (stereo unspecified)
→ -47 | 2511 | 4 | 1.5 | 3 | -1 | 6
> CCCCC(=O)Nc1nnc(SCC(=O)NC2CC2)s1
→ 8 | 3631 | 10 | -4.7 | -1 | 5 | 3
> CC1(C)OC2OC(COC(=O)c3ccc([N+](=O)[O-])cc3)C3OC(C)(C)OC3C2O1 (stereo unspecified)
→ -1 | 2593 | -6 | 2.6 | 6 | 0 | 10
> Cc1ccc(/C=N/NC(=S)NC2CCCCC2)o1
→ -82 | 3480 | · | · | · | · | 6
> N#Cc1cc(-c2ccccc2)nnc1Sc1ccc(Cl)cc1
→ -18 | 2699 | 9 | 1.5 | · | · | -6
> Cc1ccc(OCc2ccc(C(=O)Nc3nc4ccccc4n3C)o2)c([N+](=O)[O-])c1
→ -28 | 7226 | 6 | 4.0 | -1 | -2 | -13
> COc1ccc(CNC(=O)C2CCC(CNc3c(N4CCC(C)CC4)c(=O)c3=O)CC2)cc1 (stereo unspecified)
→ 0 | 5118 | 6 | 3.6 | 0 | 8 | 11
> Cc1ccc(C)c(N(C(=O)c2csnn2)C(C(=O)NC2CCCCC2)c2cccnc2)c1 (stereo unspecified)
→ -34 | 5606 | 0 | -0.9 | 2 | 7 | -2
> Cc1cc(Cl)c2oc(C(=O)NC3CCC(O)CC3)c(C)c2c1 (stereo unspecified)
→ 8 | 3176 | -2 | -2.0 | 5 | 16 | -6
> CCN1CCN(C(=S)NCC2CCCO2)CC1 (stereo unspecified)
→ -22 | 3208 | 4 | 3.2 | 6 | 1 | 3
> O=C(Nc1ccc2ccccc2c1)Nc1ccc2snnc2c1
→ -59 | 2908 | 94* | 106* | · | · | 8
> CN(C)C(=S)c1ccc(N(C)C)cc1
→ -47 | 4289 | 2 | 4.5 | 9 | 6 | -1
> CCn1cc(CNC(=O)CCc2nnc(CCC3CCCCC3)o2)cn1
→ -13 | 2073 | -2 | 2.6 | 26 | 27 | -7

From PubChem BioAssay
